TsaE inh: displaces an ADP probe from E. coli YjeE (TsaE); 71,000 tested, 0.05% active; P0AF67; Potency, µM; purified YjeE, fluorescence polarisation of a bound ADP probe; active = well fitted falling curve; inconclusive = weaker or top-dose-only fall, or a rising curve; inactive = flat or poorly fitted curve;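 further: top concentration of the series not given in the record; excess ADP was the control for the full effect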
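Fluorescence polarization of a BODIPY Texas Red–ADP probe (2 uM) bound to purified YjeE (10 uM) was read after 15 min room-temperature incubation with compounds. Loss of polarization marks inhibitors; ADP serves as titrated control.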
Bst PK mod: modulators of Bacillus stearothermophilus pyruvate kinase; partly purified Bacillus stearothermophilus pyruvate kinase, luminescence ATP production; ribose 5-phosphate activator present at AC10; Potency, µM; 51,000 tested, 1.2% active; AID 361; in the data active means potency below about 11 µM; inconclusive means mostly about 12 µM to 25 µM; inactive means weaker than that;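 the screen sought inhibitors and activators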;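 further: potency means the concentration at half of the fitted maximal effect; scaled between full activation by ribose 5 phosphate and full inhibition by luteolin; about four in five hits inhibit and the cells do not say which; series up to 57 µM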
Active calls of the source: *.

CC(=O)Nc1ccc(N)cc1 was read as TsaE inh inactive.
For CCN1C(=O)C2C(c3cccc(F)c3)NC(CC)(C(=O)OC)C2C1=O (centres undefined) the results were TsaE inh inactive and Bst PK mod >57.
Cc1ncsc1CCOC(=O)c1cccnc1 was read as TsaE inh inactive and Bst PK mod >57.
For CCC1(CC)C(=O)N=C2c3ccccc3C(=O)N21 the results were TsaE inh inactive and Bst PK mod >57.
`CCN(CC)C(=O)Oc1ccc2c(=O)c(-c3ccccc3)coc2c1` gave TsaE inh inactive.
Screening N#CC1=C(N)N=C(SCc2ccccc2)C(C(N)=O)C12CCCCC2 (centres undefined) returned TsaE inh inactive and Bst PK mod >57.
For Cc1ccc(C)c(N2CCN(C(=O)C3CCCN(S(=O)(=O)c4c(C)[nH]c(=O)[nH]c4=O)C3)CC2)c1 (centres undefined) the results were TsaE inh inactive and Bst PK mod >57.
For CC(C)(C)NC(=O)NC(=O)COC(=O)Cn1c(C(F)(F)F)nc2ccccc21 the results were TsaE inh inactive and Bst PK mod >57.
Screening c1ccc(CSc2nnc(-c3cccs3)n2Cc2ccco2)cc1 returned TsaE inh inactive and Bst PK mod >57.
CCCCOc1ccc(C(=O)NCc2ccco2)cc1 was read as TsaE inh inactive and Bst PK mod >57.
For COc1ccc(OC)c(C2C(C(=O)c3sc(C)nc3C)=C(O)C(=O)N2CCN2CCOCC2)c1 (centres undefined) the results were Bst PK mod >26.
`c1ccc(CNc2ccc3c(c2)ncn3C2CCCCC2)nc1` gave TsaE inh inactive.
`CCCn1c(SCC(=O)Nc2nonc2C)nnc1-c1ccoc1C` gave TsaE inh inactive and Bst PK mod >57.
O=C1NC(c2cccs2)C(C(=O)c2ccccc2)C(O)(C(F)(F)F)N1 (centres undefined) was read as TsaE inh inactive.
`COCCNC(=O)c1c[nH]c2cc(OC)c(OC)cc2c1=O` gave TsaE inh inactive and Bst PK mod >57.
For CCOC(=O)C(C)c1n[nH]c(=O)c2ccccc12 (centres undefined) the results were TsaE inh inactive and Bst PK mod >57.
O=C(Nc1ccc2c(c1)OCO2)c1cncc(Br)c1 was read as Bst PK mod >26.
For CCn1c(CNc2ccc(C)cc2)nnc1SCC(=O)NCc1ccccc1 the results were TsaE inh inactive and Bst PK mod >57.
CCC(=O)Nc1nc(OC)cc(OC)n1 was read as TsaE inh inactive and Bst PK mod >57.
`CC1CCN(S(=O)(=O)c2ccc(NC(=O)Cn3nnc(-c4ccccc4F)n3)cc2)CC1` gave TsaE inh inactive and Bst PK mod >57.

Overlap with the part before: 5 compounds; new compounds follow.
For CCOC(=O)C(C)c1n[nH]c(=O)c2ccccc12 (centres undefined) the results were TsaE inh inactive and Bst PK mod >57.
O=C(Nc1ccc2c(c1)OCO2)c1cncc(Br)c1 was read as Bst PK mod >26.
For CCn1c(CNc2ccc(C)cc2)nnc1SCC(=O)NCc1ccccc1 the results were TsaE inh inactive and Bst PK mod >57.
CCC(=O)Nc1nc(OC)cc(OC)n1 was read as TsaE inh inactive and Bst PK mod >57.
`CC1CCN(S(=O)(=O)c2ccc(NC(=O)Cn3nnc(-c4ccccc4F)n3)cc2)CC1` gave TsaE inh inactive and Bst PK mod >57.
`CCN(CC)CCNc1ccnc2cc(Cl)ccc12` gave TsaE inh inactive and Bst PK mod >57.
`O=C(CN1C(=O)NC2(CCCc3ccccc32)C1=O)N1CCc2ccccc2C1` (centres undefined) gave TsaE inh inactive and Bst PK mod >57.
Screening COC(=O)c1ccc2c(c1)N(Cc1nc(-c3cccc(Cl)c3)oc1C)C(=O)C1CCCN21 (centres undefined) returned TsaE inh inactive and Bst PK mod >57.
Screening O=C(Nc1ccccc1)NC1(C(=O)NCCCN2CCOCC2)CCCCC1 returned TsaE inh inactive and Bst PK mod >57.
CC1Cc2ccccc2N1C(=O)CSc1ncccc1C(=O)O (centres undefined) was read as TsaE inh inactive and Bst PK mod >57.
For CCOC(=O)c1c(C(F)(F)C(F)(F)C(F)(F)C(F)(F)F)n[nH]c1C the results were Bst PK mod >26.
`CCCS(=O)(=O)NCCc1csc(-c2cccnc2)n1` gave TsaE inh inactive.
For O=C(O)CCCCCN1C(=O)C(=O)/C(=C(/O)c2ccccc2)C1c1ccccc1 (centres undefined) the results were TsaE inh inactive.
Cc1ccc(N2CC(C(=O)Nc3cc(C)ccc3F)CC2=O)cc1 (centres undefined) was read as TsaE inh inactive.
CCOC(=O)C1CCN(C(c2cc3c(C)ccc(C)c3[nH]c2=O)c2nnnn2C2CCCCC2)CC1 (centres undefined) was read as TsaE inh inactive and Bst PK mod >57.
For CC1=C(C(=O)Nc2ccccc2)C(c2ccncc2)C(C#N)=C(SCC(=O)NC(C)C)N1 (centres undefined) the results were Bst PK mod >26.
Screening O=C(O)C1C2C=CC(C3CC23)C1C(=O)NCCc1ccccc1 (centres undefined) returned TsaE inh inactive and Bst PK mod >57.
Screening O=C(Nc1ccc2c(c1)OCO2)c1c(F)cccc1F returned TsaE inh inactive.
For Cc1nc2sc3c(c2c2nc(-c4ccco4)nn12)CC(C)(C)OC3 the results were TsaE inh inactive and Bst PK mod >57.
`COc1ccc(-c2nnc3sc(COc4ccc(C)cc4)nn23)cc1` gave TsaE inh inactive and Bst PK mod >11.
O=C(Nc1ccc(S(=O)(=O)N2CCC(C(=O)NC3CCCCC3)CC2)cc1)c1ccco1 was read as TsaE inh inactive and Bst PK mod >57.
COc1ccc(-n2c3c(cc(C(=O)N4CCC(C)CC4)c2=O)C(=O)CC(C)(C)C3)cc1 was read as TsaE inh inactive.
`COc1ccc(CCNC(=O)C2CCN(S(=O)(=O)c3cnc[nH]3)CC2)cc1OC` gave TsaE inh inactive and Bst PK mod >57.
O=C1/C(=C/c2ccccc2)[C@@H](NC2CCCCC2)c2ccccc21 was read as TsaE inh inactive.
COC(=O)c1ccc(OCC(O)CN2CCC(C)CC2)cc1 (centres undefined) was read as TsaE inh inactive.
For CC(C)(C)OC(=O)N1CCC[C@H]1c1nnc(SCc2c(F)cccc2Cl)o1 the results were TsaE inh inactive and Bst PK mod inconclusive.
Screening COc1ccc(C(=O)Cn2c(N3CCCCC3)nc3c2c(=O)n(C)c(=O)n3C)cc1OC returned Bst PK mod >26.
Screening Cc1cc(NC(=O)c2ccccc2)sc1C returned TsaE inh inactive.
Screening CCCOc1ccc(S(=O)(=O)NCc2ccc(OC)cc2)cc1 returned TsaE inh inactive.
Screening CC(=O)Oc1ccccc1C(=O)O returned TsaE inh inactive.
Screening Cn1c(SCc2nc3ccccc3c(=O)[nH]2)nnc1-c1ccco1 returned TsaE inh inactive and Bst PK mod >57.
For CCCOc1ccc(N2C(=O)CC(N(O)c3ccccc3)C2=O)cc1 (centres undefined) the results were TsaE inh inactive and Bst PK mod >57.
Screening COc1cccc(-n2nnc3c(=O)n(Cc4ccc(F)cc4)cnc32)c1 returned TsaE inh inactive and Bst PK mod >57.
For CCCn1cnc2cc(NCc3cccc(OC)c3)ccc21 the results were TsaE inh inactive and Bst PK mod >57.
COCC(C)n1c(C)cc(C(=O)COc2ccc(S(=O)(=O)N3CCOCC3)cc2Cl)c1C (centres undefined) was read as TsaE inh inactive and Bst PK mod >57.
Screening COCCCN1CC23C=CC(O2)C(C(=O)OC)C3C1=O (centres undefined) returned TsaE inh inactive and Bst PK mod >57.
For COC(=O)c1ccc(S(=O)(=O)N(Cc2cc3cc4c(cc3[nH]c2=O)OCO4)C2CCCCC2)cc1 the results were TsaE inh inactive and Bst PK mod >57.
For CC1(CC(=O)O)O[C@H]2CCCCC[C@H]2O1 (some centres undefined) (tested in a mixture with another compound) the results were TsaE inh inactive.
For CC(CC(=O)O)(CC(=O)O)C(=O)O the results were TsaE inh inactive.
For CC(/C=C/c1ccc(Cl)o1)=C\C(=O)O the results were TsaE inh inactive and Bst PK mod >57.
CCc1ccc(CCC(=O)Nc2ccc(C)cc2C)o1 was read as TsaE inh inactive.
`CCN1c2ccccc2-c2nc3ccccc3n2C1c1cccnc1` (centres undefined) gave TsaE inh inactive and Bst PK mod >57.
COC(=O)C1(CCSC)NC(c2ccccc2OC)C2C(=O)N(C)C(=O)C21 (centres undefined) was read as TsaE inh inactive and Bst PK mod >57.
Screening CCC(C)(C)n1nnnc1C(c1ccc(OC)c(OC)c1)N1CCN(c2ccc(F)cc2)CC1 (centres undefined) returned TsaE inh inactive and Bst PK mod >57.
`COc1ccc(OC)c(-c2c[n+](=O)c3c(n2[O-])CCCC3)c1` gave TsaE inh inactive and Bst PK mod >57.
Screening CCCOC(=O)CCn1c(=S)oc2ccccc21 returned TsaE inh inactive and Bst PK mod >57.
CCCCCn1c(SCC#N)nc2cc(C(=O)NC3CCCCC3)ccc2c1=O was read as TsaE inh inactive and Bst PK mod >57.
Screening CCOC(=O)CNC(=O)c1ccc2c(c1)OCCO2 returned TsaE inh inactive.
c1ccc(Nc2ncncc2-c2ccoc2)cc1 was read as TsaE inh inactive.
For O=C(NCCOCC(F)(F)C(F)F)c1cc(F)c(F)cc1Cl the results were TsaE inh inactive and Bst PK mod >57.
Screening Cc1cc(C)c(C(=O)COC(=O)Cn2cnnn2)cc1C returned TsaE inh inactive and Bst PK mod >57.
`CC(=O)Nc1cc(NC(C)=O)c2nc(N)sc2c1` gave TsaE inh inactive.
`O=C(NC1CC2CCC1C2)C1COc2ccccc2O1` (centres undefined) gave TsaE inh inactive and Bst PK mod >57.
Screening COC(=O)c1cc(OC)c(OC)cc1NC(=O)Nc1ccc(OC)cc1OC returned TsaE inh inactive and Bst PK mod >57.
CCCn1c(CN2CCN(C(=O)c3ccco3)CC2)nc2c1c(=O)n(C)c(=O)n2C was read as TsaE inh inactive.

Structural class, the entries above with a CF3 group.
For CC(C)(C)NC(=O)NC(=O)COC(=O)Cn1c(C(F)(F)F)nc2ccccc21 the results were TsaE inh inactive and Bst PK mod >57.
O=C1NC(c2cccs2)C(C(=O)c2ccccc2)C(O)(C(F)(F)F)N1 (centres undefined) was read as TsaE inh inactive.
For CCOC(=O)c1c(C(F)(F)C(F)(F)C(F)(F)C(F)(F)F)n[nH]c1C the results were Bst PK mod >26.

Back to the main list with the 2 entries that preceded the break.
Screening COC(=O)c1cc(OC)c(OC)cc1NC(=O)Nc1ccc(OC)cc1OC returned TsaE inh inactive and Bst PK mod >57.
CCCn1c(CN2CCN(C(=O)c3ccco3)CC2)nc2c1c(=O)n(C)c(=O)n2C was read as TsaE inh inactive.
CCCn1c(SCC(=O)Nc2cc(C)on2)nc2c1c(=O)n(C)c(=O)n2C was read as TsaE inh inactive and Bst PK mod >57.
`COc1ccccc1-n1c(=S)sc2c(=O)n(Cc3ccco3)c(SC)nc21` gave TsaE inh inactive and Bst PK mod >57.
For C=CCOC(=O)C1=C(C)NC(SCC(=O)OCC)=C(C#N)C1c1ccc(O)c(OC)c1 (centres undefined) the results were TsaE inh inactive and Bst PK mod >57.
O=C(Nc1cccc2nsnc12)c1ccc2c(c1)OCCO2 was read as TsaE inh inactive.
`COc1ccc(C(O)P(=O)(O)CCc2ccccc2)cc1` (centres undefined) gave TsaE inh inactive and Bst PK mod >57.
`CCc1ccc2nc(NC(=O)c3cc(C)on3)sc2c1` gave TsaE inh inactive and Bst PK mod inactive.
For O=C(Nc1ccc(OCC(=O)N2CCN(S(=O)(=O)c3ccccc3)CC2)cc1)c1ccco1 the results were TsaE inh inactive.
Screening C=CCn1cnc2c(c1=O)c1nc3ccccc3nc1n2/N=C/c1ccccn1 returned TsaE inh inactive and Bst PK mod >57.
Screening COC(=O)CCc1n[nH]c(=O)[nH]c1=O returned TsaE inh inactive.
`COc1cccc(-c2cc(N(C)Cc3ccco3)ncn2)c1` gave TsaE inh inactive.
COc1cccc(Cn2c(Oc3ccccc3)nc3c2c(=O)n(C)c(=O)n3C)c1 was read as Bst PK mod >26.
c1cc(CNCCN2CCNCC2)ccn1 was read as TsaE inh inactive.
CC(C(=O)Nc1ccccc1C(=O)N1CCCC1)n1nnc2ccccc21 (centres undefined) was read as TsaE inh inactive and Bst PK mod >57.
For CC(C)OC(=O)CSc1nnc(-c2ccccn2)n1-c1ccccc1 the results were TsaE inh inactive and Bst PK mod >57.
For O=C(CN1CCN(c2ccccn2)CC1)Nc1cccc(C(F)(F)F)c1 the results were TsaE inh inactive and Bst PK mod >57.
CCOC(=O)C1CCCN(C(=O)c2ccc(CS(=O)(=O)c3ccc(C)cc3)o2)C1 (centres undefined) was read as TsaE inh inactive.
`Cc1cccc(NC(=O)Cn2cnc3sc(C)c(S(=O)(=O)N4CCC(C)CC4)c3c2=O)n1` gave TsaE inh inactive and Bst PK mod >57.
O=C(COc1ccc(F)cc1)N(CC1=CCS(=O)(=O)C1)c1ccccc1 was read as TsaE inh inactive and Bst PK mod >57.
Cc1cccc(C)c1OCC(O)CN (centres undefined) was read as TsaE inh inactive and Bst PK mod >57.
For Cc1ccn2c(CCc3nnc4cc(C)ccn34)nnc2c1 the results were TsaE inh inactive.

Structures shown so far with two or more sulfur atoms, in the order listed:
Screening c1ccc(CSc2nnc(-c3cccs3)n2Cc2ccco2)cc1 returned TsaE inh inactive and Bst PK mod >57.
`CCCS(=O)(=O)NCCc1csc(-c2cccnc2)n1` gave TsaE inh inactive.
`COc1ccccc1-n1c(=S)sc2c(=O)n(Cc3ccco3)c(SC)nc21` gave TsaE inh inactive and Bst PK mod >57.
`Cc1cccc(NC(=O)Cn2cnc3sc(C)c(S(=O)(=O)N4CCC(C)CC4)c3c2=O)n1` gave TsaE inh inactive and Bst PK mod >57.

(list continues)
For Cc1c(NC(=O)CSc2nnnn2Cc2ccccc2)c(=O)n(-c2ccccc2)n1C the results were TsaE inh inactive and Bst PK mod >57.
`COc1ccc(CNc2ncncc2-c2ccccc2C)c(OC)c1` gave TsaE inh inactive.
CCCCC(CC)CNCC(CC)CCCC (centres undefined) was read as TsaE inh inactive.
For CC(C=O)Cc1ccc(C(C)(C)C)cc1 (centres undefined) the results were TsaE inh inactive.

This is a subset; count on the stated rates, not on these rows.
